Screening data (PubChem BioAssay)
LANA-nucl inh = inhibitors of KSHV LANA-nucleosome binding, primary screen, biochemical, fluorescence polarization, FITC-LANA1-23, chicken nucleosomes; FITC-LANA1-23 / chicken nucleosome fluorescence polarization; hits give low values; z-score (test concentration not listed); 0.3% of 51,000 active;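 active = both repeat wells score below -2 in polarization z-score versus plate sample wells, excluding overly bright wells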;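 also: 100 nL library stock added to about 30 µL; numbers are from one replicate; some results filed as inactive read as strong as hits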
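Assay system: FITC-LANA peptide and chicken nucleosomes; input: 240 nM purified chicken nucleosomes (480 nM peptide binding sites), final; also added: 50 nM FITC-LANA1-23 probe; medium: TEN-BT buffer, pH 7.5; doses: pin-transferred compound, 100 nL; times: 10–45 min, room temperature; technique: fluorescence polarization; replication: duplicates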
Ab BasE inh = BasE siderophore enzyme inhibitors, primary screen, biochemical, Acinetobacter baumannii ATCC 17978, fluorescence polarization. 0.1% of 84,000 active. AID 485350, 2010. purified BasE, fluorescence polarization binding displacement. inhibition, % (no concentration beside the values);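 active = both replicates above 25% with normal brightness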;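 also: 0% = negative plate control signal and 100% = positive plate control signal; stock transfer was 100 nL into about 30 µL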
* marks the source's active call; other numbers are inactive results; / = no result given; & = joins results of further samples. Not all compounds are listed; the hit share may differ from the screen's.

A first look (2 entries):
no.	SMILES	LANA-nucl inh	Ab BasE inh
1	O=S(=O)(c1ccc2nc(-c3cccs3)c(-c3cccs3)nc2c1)N1CCOCC1	/	3.0
2	COc1cc(CO)cc(Br)c1OCc1cccnc1	0.095	0.5

The whole of this part (from the top)
no.	SMILES	LANA-nucl inh	Ab BasE inh
1	O=S(=O)(c1ccc2nc(-c3cccs3)c(-c3cccs3)nc2c1)N1CCOCC1	/	3.0
2	COc1cc(CO)cc(Br)c1OCc1cccnc1	0.095	0.5
3	CCCCc1ccc(NC(=O)CSc2nc(C3CCCCC3)c(C#N)c(=O)[nH]2)c(C)c1	/	0.8
4	COc1cccc(NC(=O)c2ccc(-c3cccc(Cl)c3C)o2)c1	/	-0.1
5	COc1cccc(-c2cc(C(=O)N3CCN(C(=O)c4cc(OC)c(OC)c(OC)c4)CC3)[nH]n2)c1	-2	0.1
6	COc1ccccc1/C=N/NC(=O)CNc1ccccc1OC	0.13	0.3
7	NC(CCO)c1cccc(C(F)(F)F)c1 (configuration not stated)	-2.1	/
8	COc1ccc(CN(C)C(=O)c2cccc(F)c2)c(OC)c1OC	/	-5.0
9	CCOC(=O)Nc1ccc2c(c1)N(C(=O)CN1CCOCC1)c1ccccc1CC2	-0.015	-2.6
10	Cc1ccc(-c2nnc(-c3ccc(NC(=O)C(C)C)cc3)o2)cc1	0.59	-0.6
11	c1ccc2oc(C3=NNC(=NCCN4CCOCC4)SC3)cc2c1	/	1.1
12	COc1ccc(OCc2cc(=O)n3nc(C)sc3n2)cc1	2.1	1.8
13	Nc1cc(N)nc(SCc2ccccc2C(F)(F)F)n1	0.29	3.2
14	CCCCNC(=O)c1ccc2c(=O)n(C3CCCC3)c(=S)[nH]c2c1	0.66	-1.8
15	C=CCn1c(COc2ccc(CC)cc2)nnc1SCC(=O)c1cc2ccccc2o1	/	-0.4
16	CCOc1cc2[nH]c(=O)n(CCC(=O)NC3CCCC(C)C3C)c(=O)c2cc1OCC (configuration not stated)	-1.4	0.3
17	COc1ccc(C=Nc2n[nH]c(Nc3ccccc3)c2-c2nnc3n2CCCCC3)cc1	/	2.1
18	O=C(CC1SC(=O)N(Cc2ccccc2)C1=O)Nc1nccs1 (configuration not stated)	/	1.3
19	COc1cccc(CNc2nn[nH]n2)c1OCc1ccc(Cl)cc1	-1	0.4
20	O=C(c1ccc(Cl)c(Cl)c1)n1ccc(C2CC2)n1	2.4	/
21	CCn1c(O)c(C=Nc2cc(S(=O)(=O)CC)ccc2O)c(=O)n(CC)c1=S	/	-2.4
22	CCOc1cc(C(=O)NC(C)(C)CC)cc(OCC)c1OCC	-0.65	-3.2
23	COc1cc(OC)c(OC)cc1CO	/	0.6
24	CC(C)CN(CC(C)C)C(=O)CSc1nnc(C(C)N(C)C)n1Cc1ccccc1 (configuration not stated)	/	0.2
25	O=C(Cn1cnc2ccccc2c1=O)Nc1cc(C(F)(F)F)ccc1N1CCOCC1	/	-0.1
26	CCN(CC)C/C(C)=N/Nc1ccccc1	-0.16	-1.0
27	CCc1onc(C)c1C(=O)Nc1ccc(N2CCOCC2)cc1	/	-0.7
28	CCOC(=O)C1CCCN(C(=O)c2ccc(Cl)cc2)C1 (configuration not stated)	-0.23	-0.2
29	CC1=CC(C)C2(COC(=O)Nc3ccccc3)COC(C)C1C2C (configuration not stated)	-0.074	-0.8
30	N#Cc1c(NC(=O)c2ccccc2)oc(-c2ccccc2)c1-c1ccccc1	0.056	3.0
31	COC(=O)c1ccc(COC(=O)c2ccccn2)cc1	0.64	0.9
32	Cc1ccc(/C=C2/SC(N3CCCC3)=NC2=O)cc1	-0.43	1.3
33	COc1cc(/C=N/N=C2\NC(=O)C(Cc3ccc(Cl)cc3)S2)ccc1O (configuration not stated)	-0.34	0.5
34	COc1nc(F)c(F)c(Oc2ccc(C)cc2)c1F	-0.14	1.2
35	COc1ccc(C2=NN(C(=O)COn3nnc4ccccc43)C(c3ccco3)C2)cc1 (configuration not stated)	/	1.3
36	COC(=O)C1CCN(C(=O)COC(=O)CCc2nc3ccccc3c(=O)[nH]2)CC1	/	4.2
37	COc1ccc(/C=C2/N=C(N3CCOCC3)SC2=O)cc1OC	-0.28	-2.3
38	CC(C)c1cc(NC(=O)COC(=O)c2cc3c(s2)CCCCC3)on1	/	-1.2
39	CC(C)c1ccc(OCC(=O)Nc2ccc(N3CCN(C)CC3)cc2)cc1	0.44	-1.9
40	CCc1ccc2c(c1)SC1=NS(=O)(=O)CCN12	/	2.0
41	O=C(CC12CC3CC(CC(C3)C1)C2)NCC(=O)N1CCCC1	-0.26	1.3
42	C[n+]1ccccc1C(O)Cc1ccncc1 (configuration not stated)	-1.2	0.3
43	O=C(COc1ccccc1)NN1C(=O)CSC1=S	0.68	-2.2
44	CCn1c(-c2cc(OC)c(OC)c(OC)c2)nc2ccccc21	-0.52	2.5
45	CCOc1ccc(NC(=O)CCNc2ccccc2OC)cc1	/	-1.0
46	C=CCSc1nc(C)cc(C)c1C(=O)Nc1ccccc1	0.74	3.4
47	COc1cc2c(cc1OC)C(c1cccs1)N(C(=O)/C=C/c1ccco1)CC2 (configuration not stated)	/	1.6
48	Cc1ccc(CNC(=O)C2=NN(c3ccccc3)C(=O)CC2)cc1	/	-0.8
49	O=C(Cn1cc2c(n1)CCCCC2)NCc1ccc(F)cc1	-0.42	0.8
50	N#CC1=C(S)NC(=O)C(C#N)C12CCCCC2 (configuration not stated)	0.79	-1.3

From no. 26 as far as 29, as listed above:
no.	SMILES	LANA-nucl inh	Ab BasE inh
26	CCN(CC)C/C(C)=N/Nc1ccccc1	-0.16	-1.0
27	CCc1onc(C)c1C(=O)Nc1ccc(N2CCOCC2)cc1	/	-0.7
28	CCOC(=O)C1CCCN(C(=O)c2ccc(Cl)cc2)C1 (configuration not stated)	-0.23	-0.2
29	CC1=CC(C)C2(COC(=O)Nc3ccccc3)COC(C)C1C2C (configuration not stated)	-0.074	-0.8

(listing goes on)
no.	SMILES	LANA-nucl inh	Ab BasE inh
51	CC1(C)C2CCC1(CS(=O)(=O)NC(CC(=O)O)c1cccc(Br)c1)C(=O)C2 (configuration not stated)	/	-2.5
52	CN(C(=O)c1ccco1)c1ccccc1	2	3.0
53	Cn1c(=O)c2sccc2n2c(CCC(=O)N3CCN(c4ncccn4)CC3)nnc12	1.5	-0.2
54	CC1CCCC(NC(=O)COC(=O)c2cncc(Br)c2)C1C (configuration not stated)	/	0.0
55	CSc1ncc(Cl)c(C(=O)C(C#N)c2nc3ccccc3c(=O)[nH]2)n1 (configuration not stated)	/	-1.0
56	CS(=O)(=O)N(C(=O)NC(=O)NC12CC3CC(CC(C3)C1)C2)C1CCCCC1	/	-0.4
57	Cc1cc(-c2csc(NC(=O)/C=C/c3ccco3)n2)c(C)n1CC1CCCO1 (configuration not stated)	/	0.7
58	COc1ccccc1S(=O)(=O)Cc1ccc(C(=O)NCc2ccccc2)o1	0.2	2.9
59	Cc1occc1-c1nnc(SCCCC(=O)c2ccc(Br)cc2)n1C	/	0.2
60	Oc1cccc2ccc[n+](CC(O)Cn3c4ccccc4c4ccccc43)c12 (configuration not stated)	/	3.9
61	CCn1c(C(=O)O)c(CC(=O)Nc2cc(OC)ccc2OC)c2ccccc21	-1.6	3.6
62	CCCC1=NN2CCS(=O)(=O)N=C2S1	/	-2.3
63	CC1Cc2ccccc2N1C(=O)Cn1cnc2ccccc2c1=O (configuration not stated)	/	-0.3
64	CN(Cc1ccc(Cl)c(Cl)c1)Cn1nnc2ccccc21	/	-9.9
65	COc1cc2nc(C)n(C(=S)S)c2cc1OC	/	1.1
66	C[C@]12CCC(=O)C=C1CC[C@@H]1[C@@H]2[C@@H](O)C[C@@]2(C)[C@H]1CC[C@]2(O)C(=O)CO	0.48&-0.28	0.7
67	CC1=C(C(=O)OC2C3CC4CC(C3)CC2C4)C(CC(=O)O)C(=O)N1 (configuration not stated)	0.4	-0.3
68	O=C(CCSC1=NCCS1)Nc1ccccc1Cl	-1.3	-1.5
69	COC(=O)Cc1nc(-c2ccccc2)cs1	/	-1.1
70	CC(C)Oc1ccccc1OCCCCn1cncn1	-1.7	-0.2
71	COc1ccc(C2=C(C)C(N3CCC(C(=O)NCc4ccccc4)CC3)=NS2(=O)=O)cc1	-0.48	-1.5
72	O=c1c2ccc(C(F)(F)F)cc2nc2n1CCC2	/	0.7
73	C[N+](C)(C)C[C@H](O)CC(=O)[O-]	-0.13	/
74	O=C(NCCC1=CCCCC1)c1ccc(F)c(S(=O)(=O)N2CCOCC2)c1	/	0.6
75	O=C(Sc1nnc(-c2ccco2)n1-c1ccccc1)c1c(F)cccc1F	/	-0.2
76	CCCN(S(=O)(=O)c1ccc(S(=O)(=O)N(CC)CC)cc1)S(=O)(=O)c1ccc2c(c1)OCCO2	/	0.7
77	CCn1c(SCC(=O)N/N=C/c2cccs2)nc2ccccc21	-1.1	0.6
78	Cc1ccc(-c2csc(NC(=O)COC(=O)C3CC(=O)N(Cc4ccco4)C3)n2)cc1 (configuration not stated)	/	-2.6
79	COc1ccc2nc(SCC(=O)NC3CCCCC3C)c(C#N)cc2c1 (configuration not stated)	-0.059	-2.9
80	O=C(O)COCC(=O)N1CCN(Cc2ccc3c(c2)OCO3)CC1	0.78	0.4
81	CN1CCC(=NNC(N)=S)CC1	-0.84	0.9
82	CCN=c1sc(CC(=O)O)c(-c2ccc(Cl)cc2)n1CC	/	3.9
83	CCNC(=O)CCSc1nnc(-c2ccccc2C)o1	0.058	-2.6
84	NC12CCc3c(no[n+]3[O-])C1(O)CC(c1ccccc1)=[N+]2[O-] (configuration not stated)	-0.22	-1.4
85	COc1ccc(NC(N)=O)cc1	/	0.8
86	COc1cc(OC)c(C2=NOC(C(=O)Nc3cc(C)nn3-c3ccccc3)C2)cc1Cl (configuration not stated)	-0.33	-3.6
87	C/C=C/C(=O)OCn1nnc2ccccc2c1=O	/	0.9
88	Nc1cc(=O)[nH]c(=O)n1Cc1ccncc1	0.0015	2.8
89	Cc1csc2c(=O)nc3c(C#N)n[nH]n3c12	-0.38	-0.6
90	Cc1[nH]n(-c2ccccc2)c(=S)c1C=Nc1cccc(Br)c1	/	4.9
91	CCOC(=O)c1oc2nc(-c3ccccc3)cc(C)c2c1NC(=O)Nc1ccc(Cl)cc1	-0.79	-0.3
92	Cc1cccc(NC(=O)CC2S/C(=N/c3nccs3)N(C)C2=O)c1 (configuration not stated)	0.18	-0.1
93	c1ccc(N2CCN(c3ccccc3)C2c2cccs2)cc1	0.32	0.4
94	CCCCCC(=O)Nc1ccc(C(=O)CSc2nnc3n2CCCCC3)cc1	/	-0.6
95	N#CC(c1ccccc1)c1ccc(C(=O)c2ccccc2)cc1 (configuration not stated)	0.095	/
96	CCOC(=O)/C=C1\SCC(=O)N1CCOC(=O)c1c(-c2ccccc2)noc1C	/	0.6
97	COc1ccc(CCNC(=O)CSc2nc(-c3ccco3)cc(C(F)(F)F)n2)cc1OC	-1.3	-0.6
98	CC(C(=O)Nc1ccnn1C(C)C)N(C)CC(=O)Nc1ccccc1Cl (configuration not stated)	/	3.0
99	CSc1nccc(-c2ccc(Cl)cc2)n1	-0.53	1.3
100	CC(Sc1nc2ccccc2c(=O)[nH]1)C(=O)Nc1ccc2c(c1)OCO2 (configuration not stated)	/	-0.5

Continued:
no.	SMILES	LANA-nucl inh	Ab BasE inh
101	COc1ccccc1N1CCN(CCCC#N)CC1	-0.5	1.7
102	NC(=O)N/C(CSCc1ccc(Cl)cc1)=N/O	/	2.6
103	COC(=O)c1cnc(N(C)Cc2ccccc2)c2ccccc12	-1.1	1.7
104	CCOC(=O)N1CCC(N2Cc3cccc(C(=O)N4CCN(c5cccc(C)c5C)CC4)c3C2=O)CC1	-0.55	-1.9
105	O=C(C1CCCN(Cc2ccco2)C1)N1CCCCCC1 (configuration not stated)	/	1.9
106	Cc1ccccc1CN1C(=O)C(O)(CC(=O)/C=C/c2ccco2)c2ccccc21 (configuration not stated)	1.7	-6.2
107	CC/C(=N\NC(=O)c1cc2c(C)nn(-c3ccccc3)c2s1)C(C)C	/	0.5
108	O=C(COC(=O)Cc1n[nH]c(=O)c2ccccc12)Nc1ccccc1	/	-3.0
109	CCOC(=O)C1CCCN(C(=O)c2ccc3c(c2)N(C)CCS3)C1 (configuration not stated)	-0.24	-1.4
110	CC(C)=NNc1nc(Cl)c(C#N)c(Cl)c1Cl	0.15	-30
111	CCCC(=O)NCCc1nc2ccccc2[nH]1	-0.45	-0.4
112	Cc1ccc2c(c1)c1c3n2CCN(C=O)C3CCC1 (configuration not stated)	/	1.9
113	O=C1CN(C2c3ccccc3CC2NS(=O)(=O)c2ccccc2)CCN1 (configuration not stated)	/	3.2
114	Cc1ccc(/C=N/n2cnnc2)o1	0.18	0.6
115	O=C1CN(C(=O)CSc2cccc[n+]2[O-])c2ccccc2N1	/	-2.0
116	Cc1ccc(/C=C2/SC(=S)N(C(C)C(=O)O)C2=O)o1 (configuration not stated)	/	2.7
117	O=C(CO)c1c[nH]c2ccccc12	/	1.9
118	CC(=O)N1CCN(C(=O)COC(=O)c2ccc(C(C)C)cc2)CC1	/	0.9

Reprinted at random: 3 records from the list, in no set order.
no.	SMILES	LANA-nucl inh	Ab BasE inh
114	Cc1ccc(/C=N/n2cnnc2)o1	0.18	0.6
110	CC(C)=NNc1nc(Cl)c(C#N)c(Cl)c1Cl	0.15	-30
118	CC(=O)N1CCN(C(=O)COC(=O)c2ccc(C(C)C)cc2)CC1	/	0.9
